rRNA inh HTS – inhibits bacterial ribosomal RNA function over humanized ribosomes; GFP signal change (wild-type ribosome), % (test concentration not listed); 1.6% of 350,000 active; AID 720706; E. coli WT GFP vs humanized-ribosome RFP mutants, fluorescence, 24 h; hits give low values; DMSO median 0, no signal -100;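 active = significant combined selectivity score with lowered wild-type GFP, culture density cut under 30%, mutant RFP and density less affected; inactive = any of these conditions unmet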; note: one replicate is shown; some compounds called inactive have numbers as strong as hits
B2AR ag – activates human beta-2 adrenergic receptor causing internalization. P07550. response, % (test concentration not listed). 0.43% of 340,000 active. Am2.2-beta2AR cells, FAP receptor internalization, flow cytometry; reference of the scale not given here;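 active = response above a set limit, near 3 SD of response in nonfluorescent compounds, cut at about 42% in these data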;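 note: stock transfer was 100 nL into about 11 µL; a reference agonist was the positive control; negative values mostly stem from fluorescent compounds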
LANA-H2A inh – blocks KSHV LANA binding to histone H2A/H2B. cell-free LANA-H2A/H2B peptide, fluorescence polarization. inhibition, % (no concentration beside the values). 0.6% of 320,000 active; in the data active = inhibition mostly above about 10%, no sharp cut-off; inactive = mostly below about 6.7%;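 note: stock transfer was 7.5 nL into about 10 µL; 0% = median of vehicle wells and 100% = median of positive control wells; one replicate is shown; the record names a cut of 25% in any replicate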
Target sequence (Q9QR71 whole entry, looked up): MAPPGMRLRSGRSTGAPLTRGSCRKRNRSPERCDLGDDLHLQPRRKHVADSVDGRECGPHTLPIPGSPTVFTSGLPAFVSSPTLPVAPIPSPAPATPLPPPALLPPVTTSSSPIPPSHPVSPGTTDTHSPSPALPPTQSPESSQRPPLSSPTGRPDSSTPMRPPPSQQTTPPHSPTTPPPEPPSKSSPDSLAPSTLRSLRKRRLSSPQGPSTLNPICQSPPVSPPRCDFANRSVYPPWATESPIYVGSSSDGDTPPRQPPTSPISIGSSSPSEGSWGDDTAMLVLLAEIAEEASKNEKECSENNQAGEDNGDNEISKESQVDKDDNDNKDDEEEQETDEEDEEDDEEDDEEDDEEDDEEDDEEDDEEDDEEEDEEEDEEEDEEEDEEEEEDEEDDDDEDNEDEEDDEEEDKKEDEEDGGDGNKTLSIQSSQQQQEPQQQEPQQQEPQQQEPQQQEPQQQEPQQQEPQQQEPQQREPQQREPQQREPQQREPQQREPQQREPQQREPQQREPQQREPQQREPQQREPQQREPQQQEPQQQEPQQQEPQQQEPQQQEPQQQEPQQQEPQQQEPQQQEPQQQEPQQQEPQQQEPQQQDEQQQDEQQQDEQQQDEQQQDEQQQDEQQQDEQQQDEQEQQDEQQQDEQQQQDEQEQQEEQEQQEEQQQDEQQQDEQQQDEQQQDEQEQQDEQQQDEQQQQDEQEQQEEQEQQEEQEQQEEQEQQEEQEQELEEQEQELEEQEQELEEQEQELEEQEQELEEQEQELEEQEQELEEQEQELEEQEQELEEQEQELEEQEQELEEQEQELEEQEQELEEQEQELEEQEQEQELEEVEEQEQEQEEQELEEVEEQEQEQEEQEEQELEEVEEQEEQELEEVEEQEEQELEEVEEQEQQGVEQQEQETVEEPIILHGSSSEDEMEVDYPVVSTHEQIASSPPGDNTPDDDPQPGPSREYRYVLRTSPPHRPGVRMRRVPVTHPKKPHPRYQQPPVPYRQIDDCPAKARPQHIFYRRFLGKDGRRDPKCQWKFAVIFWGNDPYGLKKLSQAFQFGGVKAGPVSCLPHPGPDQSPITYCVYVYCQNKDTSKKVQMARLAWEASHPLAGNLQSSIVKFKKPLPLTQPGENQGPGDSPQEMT
T cruzi repl – T. cruzi replication inhibition; inhibition, % (no concentration beside the values); T. cruzi beta-gal in NIH3T3, luminescence, 90 h; 1.4% of 300,000 active;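 active = mean inhibition across valid replicates above about 55%, limit read from the data; inconclusive = mean below that limit but half or more replicates reach it; inactive = mean below it, under half of replicates reach it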;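 note: signal also drops with host cell toxicity which is not excluded here; 0% = plate median of DMSO wells and 100% = zero luminescence signal; higher percent means less beta-gal luminescence so fewer parasites; stock transfer was 50 nL into about 50 µL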
ALR H2O2 inh – human ALR oxidase inhibition via reduced H2O2. P55789. purified ALR, DTT oxidation, H2O2 HRP-luminol luminescence. inhibition, % (test concentration not listed). 3.8% of 290,000 active. AID 485317;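 active = mean and each replicate at 75% or more; inconclusive = only one of the two met; inactive = neither met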;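 note: stock transfer was 7.5 nL into about 7.5 µL; 0% = neutral wells and 100% = wells with inactivated enzyme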
Beta cell apopt – beta cell apoptosis inhibition. INS-1E cytokine-induced death, ATP luminescence, 48 h; percent of positive-control rescue, neutral wells zero. protection from apoptosis, % (concentration not given with the values). 0.8% of 300,000 active;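 active = all replicates at 75% or more, or half of them and the mean; inconclusive = half reach 75% but not the mean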;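 note: 0% = cytokine-treated negative control wells and 100% = positive control rescue; higher means more ATP so stronger rescue from cytokine killing; wells of about 40 µL received 100 nL stock; the first replicate is given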
Calb FLC – affects C. albicans growth with fluconazole; C. albicans CaCi-2 (fluconazole-resistant clinical isolate) + fluconazole, Alamar Blue growth, 48 h; growth inhibition, % (test concentration not listed); 0.57% of 300,000 active; AID 1979;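 active = most replicates above 75%; inconclusive = exactly half above 75%; inactive = most below 75%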;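 note: all wells also contain fluconazole at 8 µg/ml as a sub-toxic cotreatment; 0% = median of DMSO wells and 100% = median of geldanamycin control wells; wells of about 8 µL received 7.5 nL stock; the first replicate is given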
A1 inh – inhibitors of the anti-apoptotic protein A1, read as caspase activation. MEF A1-2A-BIM cells, Caspase-Glo 3/7 luminescence, 3 h; percent of clofoctol response, vehicle zero. caspase activation, % (concentration not given with the values). 0.066% of 330,000 active. AID 2462;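 active = over half of replicate activation scores above 10%, or exactly half above 10 with the replicate mean above 10; inconclusive = replicate mean below 10 yet half the replicates above 10; inactive = over half of replicates below 10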;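 note: wells of about 30 µL received 50 nL stock; many hits fall short of the cut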
rRNA inh HTS OD600 – recorded beside rRNA inh HTS, whose call it bears; OD600 change, %; measured here: OD600 growth;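 optical density of the mix in the first replicate; 0 = DMSO median and -100 = no signal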
rRNA inh HTS RFP – recorded beside rRNA inh HTS, whose call it bears; RFP signal change, %; measured here: RFP humanized mutant strains;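 first replicate; 0 = DMSO median and -100 = no signal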
Numbers without * were called inactive; ? = inconclusive; / = not tested or not shown.

Fields – rRNA inh HTS	rRNA inh HTS OD600	rRNA inh HTS RFP	B2AR ag	LANA-H2A inh	T cruzi repl	ALR H2O2 inh	Beta cell apopt	Calb FLC	A1 inh
- CCC1(CC)NC(=O)N(CC(=O)OCC(=O)Nc2ccc(OC(F)(F)F)cc2)C1=O
  -4	-12	0.8	-6	4.5	/	-1	-5	/	-0.4
- CN1CCN(C(=O)/C(=C/c2ccc(F)cc2)c2ccsc2)CC1
  5	2	-1.5	2	-1.5	-14	-21	-1	-4	-0.3
- C#CCOCCOCCOCCNc1nc(N2CCN(C(=O)CCCCCCCCCCNC(=O)[C@H](CCCCN)n3cc(CCO)nn3)CC2)nc(N2CCN(C(=O)CCCCCCCCCCNC(=O)[C@@H]([C@H](C)O)n3cc(C)nn3)CC2)n1
  /	/	/	87*	-5.3	/	-7	-5	/	2.0
- CCSc1cc(Cl)nc(N)n1
  0	0	-9.0	-2	0.2	-8	-3	-4	-1	0.0
- Fc1ccc2c(Cl)c(-c3nnc(-c4cccs4)o3)sc2c1
  /	/	/	5	-2.3	-1	-2	-6	3	-2.6
- CCOc1ccc(N(CC(=O)Nc2ccc(OC)cc2OC)S(=O)(=O)c2c(C)[nH]c(=O)[nH]c2=O)cc1
  3	-13	7.4	1	2.3	-5	-35	-1	26	-0.2
- CC(C)C(c1nnnn1Cc1ccc(F)cc1)N1CCN(c2ccc(O)cc2)CC1 (centres undefined)
  -30	-32	1.0	0	-4.8	-20	100*	/	-2	-0.5
- CCOc1ccc(N2CC(C(=O)Nc3ccccc3N3CCOCC3)CC2=O)cc1 (centres undefined)
  /	/	/	1	3.8	-8	-7	1	-3	0.1
- COc1cc(NC(=O)c2nn(C)c3c2CS(=O)(=O)c2ccccc2-3)cc(OC)c1
  2	-3	1.0	12	-7.9	12	-13	9	-20	3.6
- Cc1cc(=O)oc2c3c(cc(OCC(=O)N[C@@H](CC(C)C)C(=O)O)c12)OC(C)(C)CC3
  10	7	1.6	-17	-3.4	-7	18	4	3	?
- Cc1oc2ncnc(N)c2c1C
  /	/	/	6	-6.9	1	-10	-4	2	-0.8
- COc1cccc(CN2CCNC(=O)C2CC(=O)N(C)CCC2CCOCC2)c1 (centres undefined)
  5	9	-0.9	-1	-4.6	-7	-98	-2	1	0.4
- COc1cccc(C(C(=O)NC(C)(C)C)N(Cc2ccc(C)cc2)C(=O)CCC(=O)Nc2cc(C)on2)c1OC (centres undefined)
  -3	-8	-2.5	0	5.1	29	/	20	26	0.6
- O=C(c1ccco1)N1CCN(Cc2nnc(-c3cccc(Br)c3)o2)CC1
  1	-2	-0.2	-15	7.9	-2	26	6	-2	0.2
- COCCNC(=O)C(c1ccccc1)N(C(=O)Cn1nnc2ccccc21)c1cccnc1 (centres undefined)
  /	/	/	-4	-2.6	-6	4	-3	-1	1.2
- COc1ccc(S(=O)(=O)N2CCC(C(=O)NN3CCCCC3)CC2)cc1OC
  11	6	-1.0	-1	7.4	/	0	1	/	0.0
- COc1ccc(C2(CCN)CC(C)N(C)CC2C)cc1 (centres undefined)
  /	/	/	-1	-1.4	1	/	/	11	0.3
- COc1ccc(CNC(=O)CCCNC(=O)c2ccc(Cl)cc2)cc1OC
  7	8	-0.4	-1	-1.0	9	-15	1	-7	1.0
- Cc1cc(C(=O)NCCCN2CCN(C3CCCCC3)CC2)n(-c2ccccc2)n1
  6	3	-1.2	-5	-1.5	-9	0	-7	-5	0.0
- CN1C(=O)c2cccc3c(S(=O)(=O)NCc4ccco4)ccc1c23
  /	/	/	-17	1.6	11	-41	6	38	0.5
- COc1ccc(/C=N/n2cnc3c([nH]c4ccc(C)cc43)c2=O)cc1CN1CCCC1
  2	-7	3.6	27	-4.8	14	2	14	-11	-0.6
- COc1cc(-c2cc(-c3ccccc3)nc(SCC(=O)O)c2C#N)cc(OC)c1OC
  -29*	-16*	-1.7*	9	-3.0	1	6	2	4	0.5
- O=C(C1CC(=O)N(c2ccc3c(c2)OCCO3)C1)N1CCCC(C(F)(F)F)C1 (centres undefined)
  1	2	0.4	-4	-2.2	-3	-18	0	1	-0.4
- CC(C)(C)c1cc(CCC(=O)Nc2ccncc2)cc(C(C)(C)C)c1O
  -22	-61	1.0	-2	1.6	22	6	-3	-4	-0.4
- O=C(Cc1ccc(Cl)cc1)Nc1ncc([N+](=O)[O-])s1
  -48	-76	-15	1	/	94*	/	/	60	/
- Cc1ccccc1CC(=O)Nc1ccc2c(C)cc(=O)oc2c1
  4	8	-2.4	-4	0.7	-13	-7	0	-3	0.1
- CC(C)C(C)NC(=O)COc1ccc(Sc2ccc(OCC(=O)NC(C)C(C)C)cc2)cc1 (centres undefined)
  -2	2	2.0	-9	-0.3	14	-34	7	8	-1.0
- Cc1ccc(Cl)cc1NC(=O)[C@@H]1CCC(=O)N1C1OC(=O)c2ccccc21 (some centres undefined)
  /	/	/	-9	1.6	-23	/	-1	1	0.6
- Cc1onc(-c2c(Cl)cccc2Cl)c1C(=O)NCc1ccco1
  /	/	/	0	-3.9	-5	-5	-2	0	2.4
- Cc1cc(O)cc(C)c1Cl
  /	/	/	-5	-2.4	-15	-5	/	-9	1.8
- COc1ccccc1OCC(=O)Nc1ccc(Cl)cc1
  /	/	/	-7	-4.4	-10	0	-5	-11	0.6
- CCCc1nnc(NC(=O)CCC(=O)NC2CCCc3ccccc32)s1 (centres undefined)
  /	/	/	0	-3.2	-4	/	-3	-14	0.0
- COc1ccc(Br)cc1CNC(=O)C1CCCN(S(=O)(=O)N2CC(C)CC(C)C2)C1 (centres undefined)
  -2	-3	-3.6	2	1.9	1	3	20	2	0.3
- CCOc1ccc(C(=O)CN2CCN(S(=O)(=O)c3ccc(Cl)cc3)CC2)cc1
  /	/	/	3	-13	/	2	-9	1	0.8
- O=C(O)CCCCCn1c(O)c(C=C2N=c3ccccc3=N2)sc1=S
  -23	-40	-14	4	1.6	1	-4	/	83*	2.1
- Nc1ccnn1Cc1cccnc1
  -11	4	-0.6	0	-1.1	-23	-9	6	-5	?
- O=C(NC(=S)NC1CCCCC1)c1ccccc1
  /	/	/	-6	-6.9	20	51	/	-33	-0.5
- CCOc1cccc2cc(C(=O)NCc3ccc(Cl)cc3)c(=N)oc12
  0	12	1.4	2	1.2	-4	-3	-5	-3	0.3
- COc1cc(-c2nnc(COc3ccc4cc(Br)ccc4c3)o2)cc(OC)c1OC
  /	/	/	21	-1.8	-9	0	/	-12	-0.4
- Cc1ccccc1N/N=C1\CCCNC1=O
  /	/	/	6	3.0	3	34	-5	-21	0.2
- CCC(=O)c1c[nH]c(C(=O)NCCc2ccccn2)c1
  /	/	/	-8	3.7	-9	12	-1	0	-0.2
- CC(=O)N1CCN(c2ccc([N+](=O)[O-])c(NCC3CCCO3)c2)CC1 (centres undefined)
  /	/	/	/	-4.2	10	-42	0	-7	1.1
- O=C(/C=C/c1cccs1)N1CCC2(CC1)Oc1ccc(Cl)cc1C(=O)C21CC(c2ccccc2)=NO1 (centres undefined)
  10	10	1.8	5	-4.3	28	-6	-2	-2	1.8
- O=C(CCNC(=O)c1ccccc1Cl)Nc1cccc(C(F)(F)F)c1
  -14	-18	0.5	0	-3.9	-12	-3	-3	-14	2.1
- CCc1cccc(C)c1NC(=O)C1CN(S(=O)(=O)c2ccccc2)CCN1S(=O)(=O)c1ccccc1 (centres undefined)
  /	/	/	3	5.7	10	/	0	?	-0.2
- Nc1nnc(-c2ccc(Cl)cc2Cl)s1
  7	6	4.6	-9	1.6	-4	-5	-5	14	-1.0
- Cn1ncc2c(N3CCCCC3)nc(NCCCO)nc21
  9	11	-0.4	5	-3.2	-4	-2	-2	1	0.3
- Cc1cc(C)cc(N(CC(=O)NC2CCCC2)C(=O)CCC(=O)Nc2nccs2)c1
  3	7	-0.7	18	-2.8	6	-1	1	1	-0.9
- CCCc1cc(=O)n2[nH]c(-c3ccc(Cl)cc3)cc2n1
  6	15	-2.2	1	-3.8	-3	-5	-4	0	0.0
- COc1ccc(C(C)(C)C)cc1NC(=S)NCCN1CCOCC1
  /	/	/	0	0.8	-17	35	-11	10	1.0
- Cc1ccc2c(c1)c1c3n2CCN(CC(N)=O)C3CCC1 (centres undefined)
  -9	-4	1.4	22	-12	12	14	6	27	1.0
- CC(=O)N1CCN(Cc2nc3cc(NC(=O)COc4ccccc4)ccc3n2C)CC1
  5	5	-5.3	-5	1.5	8	12	2	16	1.0
- Cc1c(NC(=O)c2ccc(S(=O)(=O)N(C)c3ccccc3)cc2)c(=O)n(-c2ccccc2)n1C
  1	-7	-2.9	13	7.1	-24	-5	3	11	-0.3
- O=C(CCC(=O)c1cccs1)OCc1ccc([N+](=O)[O-])cc1
  -4	0	-3.0	0	-3.1	/	/	-2	/	-1.8
- O=C(CSc1nc2ccccc2c(=O)n1-c1ccc(Cl)cc1)N/N=C/C=C/c1ccccc1[N+](=O)[O-]
  8	7	4.3	-3	-3.6	24	-1	6	21	0.8
- Cc1c(/C=N\NC(=O)c2ccc([N+](=O)[O-])cc2)cnn1C
  10	14	2.2	6	-7.1	-1	-2	-7	-20	-0.5
- Cc1nc2ccc(NC(=S)N3CCOCC3)cc2nc1C
  14	-11	-3.8	-18	1.0	3	-9	-2	-3	1.5
- COc1ccc(/C=C(/NC(=O)c2cccs2)C(=O)N2CCOCC2)cc1OC
  /	/	/	4	0.7	-6	1	5	5	1.4
- CCc1nnc(NC(=O)CCC(=O)N2CCCC2)s1
  /	/	/	3	-2.4	-14	-8	-2	-1	-0.3
- COC(=O)c1ccc2nc(NC(=O)COC(=O)CSc3nc(C)cc(C)n3)sc2c1
  /	/	/	-7	1.6	1	4	-1	14	-0.1

Later entries
Fields – rRNA inh HTS	rRNA inh HTS OD600	rRNA inh HTS RFP	B2AR ag	LANA-H2A inh	T cruzi repl	ALR H2O2 inh	Beta cell apopt	Calb FLC	A1 inh
- O=c1c2[nH]c3ccccc3c2ncn1CCN1CCCCC1
  /	/	/	-4	0.9	-10	-19	/	2	-0.1
- CCCN(C(=O)COC(=O)CCOc1ccccc1)c1c(N)n(Cc2ccccc2)c(=O)[nH]c1=O
  9	17	0.4	0	-0.6	-7	-1	-3	/	2.1
- CCc1ccc(/C=C2/Sc3ccccc3N(CC(=O)NCCCOC)C2=O)cc1
  /	/	/	/	-2.0	13	-2	1	-17	0.3
- COc1ccccc1C(=O)N(Cc1cccs1)C1CCS(=O)(=O)C1 (centres undefined)
  /	/	/	1	5.4	-8	-13	2	-1	0.8
- COc1ccccc1/C=C/C(=O)NCC(=O)N/N=C(/C)c1ccco1
  1	-4	-1.6	6	4.2	-20	5	2	-3	0.6
- COc1ccc([C@@H]2CC=C(C(=O)O)[C@H](c3cccc(Cl)c3)N2S(=O)(=O)c2ccc(Cl)cc2)cc1
  -39	-52	1.7	-2	-4.2	/	-2	2	/	0.2
- C=CCc1cc(C)cc(C)c1OCCn1cncn1
  /	/	/	10	-2.5	1	-5	-2	-28	-1.3

Screens from PubChem.

These rows are one share of the data; rates above refer to the full screens.
